miR-21 FLuc: raises the signal of a miR-21 reporter; HeLa miR-21 FLuc reporter, luciferase, 48 h; Potency, µM (titrated, usually from 38.3 µM), inactives show at the top dose reporter change, positive = more light; 340,000 tested, under 10 active; active = well fitted rising curve with a large enough effect; inconclusive = small, poorly fitted or top-dose-only effect; inactive = no such curve, though single readings can be large or run the other way;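 further: % of control where 0% means no effect; miR-21 action dims this reporter so a rising signal means less miR-21 action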
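Using DMEM plus 10% FBS, HeLa miR-21-FLuc cells are incubated with test compounds (final up to about 40uM) for 48 hours; firefly luciferase signal is then imaged following reagent-mediated lysis.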
Rango-impB inh: prevents formation of the Rango-importin beta complex; Rango CFP/YFP FRET sensor + importin beta, 45 min; Potency, µM (titrated, usually from 92.2 µM), for inactives: top-dose inhibition of complex formation; hit rate 0.031% among 340,000; active = rising FRET ratio curve, often small or poorly fitted; inconclusive = mostly compound fluorescence or quenching in the first reads; inactive = flat curves in all reads;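 further: potency means the concentration at half of the fitted maximal effect; 0% = DMSO wells and 100% = buffer wells lacking importin beta; nearly all actives have a fitted effect of over 15% in size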
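FRET biosensor Rango (snurportin 1 IBB between N-terminal EYFP and C-terminal Cerulean), 50 nM in PBS/1 mM DTT/0.02% Tween-20/0.1% BSA, preincubated 5 min RT with compound; 0.125 microM importin beta added, 45 min RT, CFP/YFP FRET ratio read.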
Rango release inh: prevents RanGTP from dissociating the Rango-importin beta complex; Potency, µM (titrated, usually from 46.1 µM), inactives show at the highest dose activity change, negative = inhibition; hit rate 0.071% among 340,000; O95149+P62826; Biochemical FRET Rango-importin beta, RanGTP-induced dissociation; active means falling FRET ratio curve, often poorly fitted, with flat reads before Ran was added; inconclusive means other falling curves, or compound fluorescence or quenching; inactive means flat or rising ratio curve;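 further: potency means the concentration at half of the fitted maximal effect; % of control where 0% means no effect; nearly all actives have a fitted effect of over 45% in size; -100% = wells without RanGTP and RCC1; the record marks most hits as doubtful in a second field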
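Compounds sat 5 min at room temperature with 0.1 uM Rango biosensor plus 0.25 uM importin beta, then FRET pre-read. RanGTP-RCC1 (0.6 uM Ran, 2mM GTP, 0.2 uM RCC1) added for 45 min, and the CFP/YFP post-read measured blocked complex dissociation.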
GLA inh pH 4.5: inhibitors of human alpha-galactosidase A at pH 4.5. P06280. purified enzyme, 4-MU-alpha-Gal fluorescence, pH 4.5. activity change, negative = inhibition, % at 105 µM. 230,000 tested, under 10 active. AID 1467; inconclusive = small, poorly fitted or top-dose-only inhibition, or a rising curve; inactive = flat fitted curve, though single readings scatter; no compound was filed as active;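 further: 0% = full activity with enzyme and -100% = basal without enzyme; dose as in the result columns while the protocol names 77 µM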
Target sequence (P06280 whole entry, looked up): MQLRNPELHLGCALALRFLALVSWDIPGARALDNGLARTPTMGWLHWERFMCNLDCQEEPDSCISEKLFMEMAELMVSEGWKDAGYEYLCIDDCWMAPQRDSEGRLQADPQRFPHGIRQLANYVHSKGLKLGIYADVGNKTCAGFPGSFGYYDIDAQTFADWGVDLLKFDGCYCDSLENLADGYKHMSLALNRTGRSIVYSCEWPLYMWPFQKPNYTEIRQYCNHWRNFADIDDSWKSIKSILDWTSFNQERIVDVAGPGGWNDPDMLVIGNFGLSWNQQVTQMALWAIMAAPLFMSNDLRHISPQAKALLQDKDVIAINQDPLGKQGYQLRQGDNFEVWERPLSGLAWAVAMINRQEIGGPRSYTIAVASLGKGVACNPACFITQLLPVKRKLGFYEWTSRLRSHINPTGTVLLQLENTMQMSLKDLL
Starred values were filed as active, the others as inactive; ? = inconclusive; · = not tested or not shown; & = joins results of further samples. The list is partial; the hit share may differ from the screen's.

cpd | Molecule | miR-21 FLuc | Rango-impB inh | Rango release inh | GLA inh pH 4.5
1 | CC(=O)Nc1ccc(SC[C@H](Cc2ccccc2)N2CC[C@@H](C)CCC2=O)cc1 | · | -1.8% | -1% | ·
2 | O=C(CN1CCOCC1)Nc1ccc(Cl)cn1 | -5% | 1.6% | 4% | ·
3 | CCOC(=O)c1ccc(-c2c(-c3ccccc3OC)sc3ccc(OC)cc23)cc1F | · | -4.8% | 2% | ·
4 | CCOC(=O)C1=C(C(=O)OCC)N(Cc2ccccc2)CCC1=O | · | -0.8% | 3% | ·
5 | O=C1C2C3C=CC(CC3)C2C(=O)N1c1ccccc1[N+](=O)[O-] (stereo not given) | 1% | -1.2% | -9% | 3
6 | CCC(=O)Nc1ccc(C(=O)OCC(=O)c2cccs2)cc1 | -4% | 3.2% | 3% | ·
7 | CC(OC(=O)CCC1CCCC1)C(=O)Nc1ccccc1[N+](=O)[O-] (stereo not given) | · | -2.7% | -11% | ·
8 | CC(=C/c1ccccc1)/C=N/NC(=O)c1ccc2nc[nH]c2c1 | -42% | -1.1% | -9% | 1
9 | CC1CC(C)CN(C(=O)CSc2nnc(-c3ccc(F)cc3)o2)C1 (stereo not given) | -11% | -5.2% | -9% | -4
10 | O=C(CNS(=O)(=O)c1c(Cl)cccc1Cl)OCC(=O)c1ccc[nH]1 | -1% | -2.9% | -17% | 5
11 | CCOC(=O)c1oc2ccc(S(=O)(=O)N3CCOCC3)cc2c1C | -12% | -0.4% | -8% | 5
12 | CCOC(=O)c1cc(C#N)c(SC(C)C(=O)NC2CCCCC2)nc1C (stereo not given) | · | -2.3% | 1% | ·
13 | Cc1noc(C)c1COc1ccccc1C(=O)N(C)CC(=O)Nc1ccc(F)cc1 | · | 1.7% | 0% | ·
14 | CCCC(=O)Nc1sc(C)c(C)c1C#N | -14% | 0.9% | 0% | -10
15 | CCOC(=O)N1CCC(N2CCCC(CO)(Cc3cccc(Cl)c3)C2)CC1 (stereo not given) | 2% | ? | -7% | -4

Screen by screen, from the results shown:
Entries 9 to 14 in GLA inh pH 4.5, in turn: -4, 5, 5, ·, ·, -10

New compounds follow
cpd | Molecule | miR-21 FLuc | Rango-impB inh | Rango release inh | GLA inh pH 4.5
16 | Cc1cccc(NC(=O)c2cc(=O)[nH]c3ccccc23)c1 | 0% | 4.1% | 19% | ·
17 | O=C(NCc1ccc2c(c1)OCO2)C1CC(=O)N(C2CCCCCC2)C1 (stereo not given) | -6% | 0.1% | 8% | -4
18 | CCOc1ccc(N2C(=O)CN(O)C=C3N=c4ccccc4=C32)cc1 | -4% | · | · | 6
19 | Cc1ccccc1C(=O)N1CCN(c2ncccn2)CC1 | -1% | 2.9% | 19% | ·
20 | Cc1c(C(=O)c2ccc(Cl)cc2Cl)cnc2cc3c(cc12)OCO3 | 4% | 2.6% | 15% | -3
21 | O=C(CCNC(=O)c1ccc(Cl)cc1)NCC(c1ccco1)N1CCCC1 (stereo not given) | · | -3.4% | -14% | ·
22 | O=C(O)C1Cc2ccccc2CN1C(=O)c1ccco1 (stereo not given) | -2% | -1.0% | -3% | ·
23 | COc1cc([C@H]2Oc3c(OC)cc(CCCO[C@@H]4O[C@H](CO)[C@@H](O)[C@H](O)[C@H]4O)cc3[C@@H]2CO)ccc1O | · | -0.3% | -4% | ·
24 | O=C(OCc1cccc(Cl)c1)c1cc(S(=O)(=O)N2CCCCC2)ccc1N1CCOCC1 | -1% | -1.4% | 1% | ·
25 | CCN(CC)S(=O)(=O)c1cc(NC(=O)CNc2cccc(S(=O)(=O)N3CCOCC3)c2)ccc1C | · | -0.3% | -3% | ·
26 | CCn1c(=O)c2cc(C(=O)Nc3ccccc3OC)sc2c2ccccc21 | 2% | -5.2% | -11% | 15
27 | CCC(=O)Nc1cccc(C2=NOC3(C2)C[C@@H](C(N)=O)N(C(=O)c2cc([N+](=O)[O-])cc([N+](=O)[O-])c2)C3)c1 (stereo not given in full) | 8% | 5.8% | 3% | 0
28 | C=CCNC(=S)NCc1ccccc1OC | 3% | -2.7% | 6% | 7
29 | CN(Cc1cccs1)C(=O)c1cccc(S(=O)(=O)N2CCCCCC2)c1 | · | -0.8% | 3% | ·
30 | O=C1CNc2ccc(C(=O)N3CCN(c4ccccn4)CC3)cc2N1 | 1% | 2.1% | 1% | ·

Quoted at random: three records from the list.
cpd | Molecule | miR-21 FLuc | Rango-impB inh | Rango release inh | GLA inh pH 4.5
19 | Cc1ccccc1C(=O)N1CCN(c2ncccn2)CC1 | -1% | 2.9% | 19% | ·
4 | CCOC(=O)C1=C(C(=O)OCC)N(Cc2ccccc2)CCC1=O | · | -0.8% | 3% | ·
16 | Cc1cccc(NC(=O)c2cc(=O)[nH]c3ccccc23)c1 | 0% | 4.1% | 19% | ·

More structures.
cpd | Molecule | miR-21 FLuc | Rango-impB inh | Rango release inh | GLA inh pH 4.5
31 | NC(=O)CSc1nnc(-c2cccs2)n1Cc1ccco1 | 0% | 1.8% | -5% | 7
32 | CSc1nc(C)c2c(n1)OC(CN1C(=O)c3ccccc3C1=O)C2 (stereo not given) | -4% | · | · | -4
33 | COC(=O)C1=C(C)N(CCc2ccc(OC)cc2)C(=O)C1 | 0% | 1.1% | -1% | 5
34 | Cc1ccc(/S(C)=N/S(=O)(=O)c2ccc(C)cc2)cc1 (stereo not given) | -6% | ? | 27% | 2
35 | O=C(NCc1ccco1)Nc1ccc2snnc2c1 | -10% | 0.7% | -9% | 6
36 | O=C(c1ccc2c(c1)OCCCO2)c1cccs1 | -41% | -0.6% | -2% | 0
37 | CC(=O)c1c(C)[nH]c(C(=O)N2CCCCCC2)c1C | 3% | -0.2% | ? | ?
38 | COc1ccccc1-n1nnnc1SCC(=O)N(CC(C)C)C1CCS(=O)(=O)C1 (stereo not given) | 2% | -0.4% | -8% | ·
39 | CN(c1ccc(F)cc1)S(=O)(=O)c1ccc(Cl)c(C(=O)NCC2CCCO2)c1 (stereo not given) | · | 4.0% | 26% | ·
40 | O=C(COc1ccccc1[N+](=O)[O-])N/N=C/c1ccc(O)cc1 | -50% | 0.4% | 11% | -9
41 | CC1CCC(NC(=O)C2CC(O)CN2S(=O)(=O)c2ccc([N+](=O)[O-])cc2)CC1 (stereo not given) | · | 2.4% | 2% | ·
42 | CC(C)C(C)(C#N)NC(=O)CSc1nc(C2CCCCC2)n(-c2ccccc2)n1 (stereo not given) | 0% | 6.4% | 11% | -1
43 | CC1CN(C(=O)c2cc(-c3ccc(Cl)s3)nc3ccccc23)CC(C)O1 (stereo not given) | · | -0.3% | -7% | ·
44 | CCN1CCN(C(=S)c2ccc(-c3ccccc3)cc2)CC1 | 6% | -5.1% | -3% | -7
45 | Nc1ncnc2c1ncn2[C@@H]1O[C@H](CNCc2ccccc2OC2OC(CO)C(O)C(O)C2O)[C@@H](O)[C@H]1O (stereo not given in full) | · | -0.9% | 11% | ·
46 | O=C(NC(=S)N1CCN(Cc2ccc3c(c2)OCO3)CC1)c1cccc(Br)c1 | 1% | -0.8% | -4% | 2
47 | N/C(=N\OC(=O)c1cc([N+](=O)[O-])ccc1Cl)c1cccnc1 | -2% | 3.6% | 11% | 0
48 | COc1ccc2oc(C(=O)NCC(Cc3ccccc3)N(C)C)c(C)c2c1 (stereo not given) | -11% | 1.2% | -7% | ·
49 | CC(C)CCNC(=O)c1cnn2c(C(F)(F)F)cc(-c3ccco3)nc12 | -7% | ? | ? | -2
50 | CC(/C=C/c1ccco1)=N\NC(=O)C(O)c1ccccc1 (stereo not given) | -9% | ? | 0% | 3
51 | C=CCNC(=O)CN1CCC(NC(=O)c2ccco2)CC1 | 0% | -3.0% | -9% | 3
52 | COc1ccc(-n2cc(CNCCCn3ccnc3)c(-c3ccccc3Cl)n2)cc1 | -14% | -2.7% | 26% | 3
53 | Cc1oc(C(C)(C)C)cc1C(N)=O | -1% | -3.6% | 9% | -5
54 | CSc1nc2ccc(NC(=O)c3ccc(=O)n(C)n3)cc2s1 | -43% | -0.4% | 0% | 2
55 | CC1(c2ccc(Cl)cc2)NC(=O)N(CC(=O)Nc2cccnc2Cl)C1=O (stereo not given) | · | 0.2% | -4% | ·
56 | COc1ccc(CS(=O)/C(Cl)=C(/Cl)C(=O)Nc2ccc(OC)nc2)cc1 (stereo not given) | ? | 0.9% | 5% | 5
57 | CCOC(=O)C1CCN(C(=S)Nc2ccccc2)CC1 | -2% | -3.1% | 14% | 7
58 | O=C(O)c1ccccc1C=NNc1ccc([N+](=O)[O-])cn1 | · | ? | -1% | ·
59 | O=C(/C=C/c1ccc(Br)cc1)NCc1cccs1 | -40% | 2.1% | 13% | 4
60 | CN1CCN(C(=O)c2sc(=S)n(-c3ccccc3)c2N)CC1 | -4% | 0.4% | -13% | -9
61 | Cc1cc(O)ccc1NS(=O)(=O)c1ccc2c3c(cccc13)C(=O)N2 | 1% | -0.2% | -5% | ·
62 | Cc1cc(Br)ccc1OCCNCc1ccccc1 | -18% | 4.5% | 0% | -4
63 | Nc1ccc(Oc2c(Cl)cccc2Cl)nc1 | -8% | -4.2% | -8% | 0
64 | C[C@@H](NC(=O)Cn1ccc(NC(=O)OCc2ccccc2)nc1=O)c1cccc2ccccc12 | · | -0.6% | -2% | ·
65 | CCc1nnc(NC(=O)c2ccc(OCc3c(C)noc3C)c(OC)c2)s1 | 7% | -4.9% | -7% | 0
66 | O=C1c2ccccc2C(=O)N1CCc1nc(-c2cccnc2)no1 | -4% | 2.9% | 0% | -6
67 | O=C(COC(=O)c1ccc2ncsc2c1)Nc1ccc(Cl)cc1 | · | -0.5% | -5% | ·
68 | COCCCn1c(=O)c2sccc2n2c(CCCC(=O)NCc3ccc(F)cc3)nnc12 | 2%&-8% | 0.5% | 2% | ·
69 | COc1c(Cl)cc(Br)c(OC)c1C(=O)NC(=O)Nc1nc(C)cc(C)n1 | -1% | -0.4% | -8% | -8
70 | COc1ccc(Cl)cc1NC(=O)C(=O)NC1CCCCCC1 | 1% | 0.7% | 18% | -10
71 | NC(=O)c1ccc(NC(=O)CSc2nnc(-c3cccnc3)n2Cc2ccco2)cc1 | 0% | ? | ? | ·
72 | CCOc1ccc(CCNC(=O)C2CCN(C(=O)N(C)C)CC2)cc1OCC | -4% | 3.5% | 14% | -2
73 | CCOc1cc(S(=O)(=O)n2ccnc2)ccc1Cl | 2% | 0.8% | 1% | 6
74 | CC(=O)c1ccc(N(C)C)cc1 | -5% | 0.1% | 0% | -14
75 | Cc1c(C(=O)Cc2ccccc2)n(C)c2ccccc12 | -17% | 4.8% | 0% | 3
76 | S=C(Nc1ccccc1)N1CCc2ccccc21 | -18% | -0.7% | 12% | ·
77 | COc1ccc2c(c1)OC[C@H]1[C@H]2N2C(=O)c3ccc(F)cc3NC(=O)[C@@]2(C)[C@H]1c1ccccc1 | · | ? | 5% | ·
78 | COc1ccc2[nH]c(=O)c(C(=O)O)cc2c1 | 4% | -2.8% | 1% | 11
79 | COc1ccc(-n2ccnc(SCC(=O)NCc3ccccc3Cl)c2=O)cc1 | -1% | 0.6% | -16% | ·
80 | Cc1ccn(CCNC(=O)C2CCC(=O)N(CCc3ccc(Cl)cc3)C2)n1 (stereo not given) | 3% | -1.6% | 2% | ·
81 | Cc1ccc(S(=O)(=O)NCC(c2ccc3c(c2)OCO3)N2CCN(c3ccccc3)CC2)cc1 (stereo not given) | · | -0.3% | 6% | ·
82 | CC(C)Cc1nnc(NC(=O)C2CCN(C(=O)c3ccc(F)cc3)CC2)s1 | · | -0.1% | 1% | ·
83 | Cc1ccc(C2(C)NC(=O)N(CC(=O)Nc3ccccc3C(=O)N3CCCCC3)C2=O)cc1 (stereo not given) | · | 2.1% | 11% | ·
84 | Cc1ccc2c(c1)C(c1ccccc1)N(C(=O)c1ccc(Br)o1)CC(=O)N2 (stereo not given) | 3% | 1.6% | -10% | -13
85 | CCC(C)N1CCNCC1 (stereo not given) | -45% | -1.0% | 18% | 8
86 | COc1cc(NC(=O)C/C(C)=N/NC(=O)C2CCCCC2)c(OC)cc1Cl | -4% | 1.4% | -6% | ·
87 | Cc1ccc(/C=N/NC(=O)c2ccc3nc[nH]c3c2)o1 | 0% | 0.6% | 35% | 0
88 | CCC(=O)c1ccc(OC(=O)C2CCN(C3=NS(=O)(=O)c4ccccc43)CC2)cc1 | · | 0.8% | 18% | ·

Compound activity (PubChem BioAssay)
